Screening data (PubChem BioAssay)
Mtb H37Rv: M. tuberculosis H37Rv growth inhibitors, H37Rv strain (AID 1626) | one-dose inhibition, % at 10 µM; IC50 in µM for titrated hits | hit rate 0.95% among 220,000 | M. tuberculosis H37Rv growth inhibition; higher % means a stronger effect;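 active means confirmed in a dose series; inconclusive means inhibition above 80% but not taken into the dose series; inactive means below 80% or under 30% at every dose of the series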;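 further: bacteria incubated seven days before Alamar blue readout; 0% = bacteria only wells and 100% = bacteria with antibiotic wells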
YopH PTP inh: YopH (Yersinia) phosphatase inhibition. fluorescence Ex485/Em525. inhibition, %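 (about 10 µM by stock and volumes)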. hit rate 0.16% among 140,000;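 active means inhibition of 50% or more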;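 further: controls were vehicle for no effect and minimum signal wells for full effect; inactives centre near -20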
Mtb betalactam: beta-lactam sensitization of Mtb H37Rv | M. tuberculosis H37Rv growth with meropenem, percent inhibition; hits of this screen are not shown here | inhibition, % at 25 µM | hit rate 0.27% among 330,000;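 active means about 74% or more and at least 40 points above the plate without the antibiotic, then above 30% in a dose series; inconclusive means first-round hits that could not be retested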;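 further: growth measured after seven days incubation then overnight dye step; 0% = bacteria only wells and 100% = bacteria with antibiotic; twin plates without the antibiotic show which effects depend on it; some results filed as inactive read as strong as hits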
Arbovirus inh: blocks arbovirus infection; hit rate 0.37% among 200,000; inhibition, % at 10 µM; arbovirus infection cell-based antiviral screen;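 active means inhibition from about 30%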;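 further: bluetongue infection of BSR cells; cell survival read as ATP light after 72 h; 0% = infected wells without compound and 100% = uninfected wells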
RecA intein inh: Mtb RecA intein splicing inhibition; P9WHJ3; cell-free RecA intein splicing, fluorescence; inhibition, %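 (about 9 µM by stock and volumes)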; hit rate 0.75% among 290,000; AID 2221; in the data active means inhibition above about 30%; inconclusive means no clear call, values can overlap the other calls;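 further: 0% = vehicle wells and 100% = reference inhibitor control wells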
Target sequence (P9WHJ3 whole entry, looked up): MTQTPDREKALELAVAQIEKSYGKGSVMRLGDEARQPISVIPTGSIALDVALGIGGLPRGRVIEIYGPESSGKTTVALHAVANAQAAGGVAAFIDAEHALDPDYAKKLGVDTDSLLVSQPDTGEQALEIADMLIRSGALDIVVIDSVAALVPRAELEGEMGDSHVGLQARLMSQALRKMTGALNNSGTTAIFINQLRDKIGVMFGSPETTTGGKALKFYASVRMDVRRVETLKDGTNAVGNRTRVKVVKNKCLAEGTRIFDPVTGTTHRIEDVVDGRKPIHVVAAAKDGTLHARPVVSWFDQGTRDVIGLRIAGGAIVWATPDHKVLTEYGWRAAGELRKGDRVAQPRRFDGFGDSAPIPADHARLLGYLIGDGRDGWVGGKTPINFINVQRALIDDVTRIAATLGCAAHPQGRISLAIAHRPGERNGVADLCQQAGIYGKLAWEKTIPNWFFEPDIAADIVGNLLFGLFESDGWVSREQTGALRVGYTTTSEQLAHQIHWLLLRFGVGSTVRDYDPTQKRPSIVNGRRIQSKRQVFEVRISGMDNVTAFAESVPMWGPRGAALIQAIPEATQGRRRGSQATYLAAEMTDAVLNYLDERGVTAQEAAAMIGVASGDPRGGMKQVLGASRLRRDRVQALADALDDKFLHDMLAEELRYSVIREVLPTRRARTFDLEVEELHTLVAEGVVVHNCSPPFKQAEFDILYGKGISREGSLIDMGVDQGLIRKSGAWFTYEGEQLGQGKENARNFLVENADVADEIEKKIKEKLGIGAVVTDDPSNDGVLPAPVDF
Arbovirus inh repeat: further read-out of Arbovirus inh, marked with its call; inhibition, %; measured here: 10K subset replicate screen; many hits read low in the repeat;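 first of two repeat runs on a subset; 0% = infected and 100% = uninfected wells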
The depositor's hits bear a star; i = inactive; ? = inconclusive; . = not tested or not shown. An excerpt; the hit share may differ from the screen's.

SMILES	Mtb H37Rv	YopH PTP inh	Mtb betalactam	Arbovirus inh	RecA intein inh	others
CC(Oc1cccc(Cl)c1)C(=O)Nc1cc(S(=O)(=O)N2CCCCC2)ccc1N1CCOCC1 (stereo not given)	.	.	-1	.	6.2
COc1ccc2oc(C(F)(F)C(F)(F)F)cc(=O)c2c1	.	2	-9	9	1.7
Cc1ccc(NC(=O)Cc2ccc(-c3ccccc3)cc2)nc1	.	.	86	.	3.4
CCc1ccc2[nH]c(=O)c(C(c3nnnn3CCOC)N3CCN(c4ccccc4F)CC3)cc2c1 (stereo not given)	-6%	-30	-3	0	-3.1
COC(=O)c1cc(C(=O)OC)cc(N2C(=O)CC(NNC(=O)c3ccccc3Cl)C2=O)c1 (stereo not given)	-11%	-18	-8	17	8.8
O=C(CCc1nnc2ccc(NCc3ccccc3Cl)nn12)NC1CCCC1	.	.	-2	.	1.6
O=C(CN(Cc1ccc2c(c1)OCO2)C(=O)c1cnsn1)NC1CCCC1	-12%	-24	-7	-1	-2.1
CC(C)c1cc(C(=O)N/N=C/c2ccco2)n[nH]1	-7%	-28	-4	1	-1.1
O=C(CCC(=O)Nc1nnc(C2CCCCC2)s1)NCc1cccs1	1%	-42	-11	2	-1.1
NC(=O)CSc1nnc(-c2cccc(S(=O)(=O)N3CCCCC3)c2)o1	-14%	.	-3	.	3.2

Arranged by SMILES length (high to low): part of the list above
SMILES	Mtb H37Rv	YopH PTP inh	Mtb betalactam	Arbovirus inh	RecA intein inh	others
CCc1ccc2[nH]c(=O)c(C(c3nnnn3CCOC)N3CCN(c4ccccc4F)CC3)cc2c1 (stereo not given)	-6%	-30	-3	0	-3.1
O=C(CN(Cc1ccc2c(c1)OCO2)C(=O)c1cnsn1)NC1CCCC1	-12%	-24	-7	-1	-2.1
Cc1ccc(NC(=O)Cc2ccc(-c3ccccc3)cc2)nc1	.	.	86	.	3.4
CC(C)c1cc(C(=O)N/N=C/c2ccco2)n[nH]1	-7%	-28	-4	1	-1.1

Further entries
SMILES	Mtb H37Rv	YopH PTP inh	Mtb betalactam	Arbovirus inh	RecA intein inh	others
CC1(C)CC(CC(=O)O)(c2ccccc2)CCO1 (stereo not given)	-4%	-42	-2	10	0.8
CCNC(=O)/C(C#N)=C/c1c(N2CCN(Cc3ccc4c(c3)OCO4)CC2)nc2c(C)cccn2c1=O	9%	11	-6	-8	-6.7
O=C(NCc1ccccc1F)C1CCN(C(=O)Nc2ccc(F)cc2)CC1	.	.	-4	.	-2.3
Fc1c(F)c(F)c(/C=N/NC(=S)Nc2cccnc2)c(F)c1F	-2%	.	0	8	-0.8
CC1(C)CC(=O)C=C(Nc2ccccc2F)C1	2%	-21	1	1	-1.3	Arbovirus inh repeat=2
CCO[C@@H]1OC(C(N)=O)=C[C@H](c2ccc(Br)cc2)[C@H]1CCCO	-14%	.	-15	7	-0.5
O=C(NCc1cccnc1)c1ccc2c(c1)N(Cc1ccccc1)CCS2	9%	.	-2	.	-1.6
O=C(CCCCCNS(=O)(=O)c1ccc(Br)cc1)NCCN1CCOCC1	2%	-16	2	-1	.
O=C(CSc1ccsc1[N+](=O)[O-])N1CCN(c2ccccc2)CC1	-10%	-13	33	1	-1.0
NC(=O)c1ccc[n+](Cc2ccccc2)c1	-9%	-3	-3	-2	-0.8

Among those listed so far, two contain an aryl thioether with sulfur outside any ring:
SMILES	Mtb H37Rv	YopH PTP inh	Mtb betalactam	Arbovirus inh	RecA intein inh	others
NC(=O)CSc1nnc(-c2cccc(S(=O)(=O)N3CCCCC3)c2)o1	-14%	.	-3	.	3.2
O=C(CSc1ccsc1[N+](=O)[O-])N1CCN(c2ccccc2)CC1	-10%	-13	33	1	-1.0

(further entries)
SMILES	Mtb H37Rv	YopH PTP inh	Mtb betalactam	Arbovirus inh	RecA intein inh	others
CCC(=O)N/C(N)=N/c1nc(C)c2cc(OC)ccc2n1	13%	-12	24	-21	-5.2
CC(C)Cn1c(=O)c2ccccc2n2c(CCC(=O)NCc3ccccn3)nnc12	.	.	2	.	-3.7
COCCNC(=O)CSc1nc2ccccc2c(=O)n1CCC(=O)N1CCN(c2ccccc2)CC1	2%	.	5	1	3.1
COc1cccc(NC(=O)Cn2c(=O)oc3ccccc32)c1	-1%	29	-3	12	1.6
Clc1ccccc1COc1ccc(/C=N/n2cnnc2)cc1	8%	-29	10	-14	0.1
COc1ccc(/C(C)=N/NC(=O)c2ccc(N(C)C)cc2)cc1	.	-4	6	-4	-3.1
COC(=O)c1cc(NC(=O)c2cc(C)oc2C)cc(C(=O)OC)c1	-2%	-20	7	-4	9.8
COCCCNC(CC(=O)Nc1cc(C)cc(C)c1)C(=O)O (stereo not given)	.	.	-3	.	1.8
O=C(NCCCN1CCN(CCCNC(=O)c2cccc(Cl)c2)CC1)c1cccc(Cl)c1	0%	-26	-12	-5	-0.9
O=C1CC2(CCN(C(=O)COc3ccccc3)CC2)Oc2ccccc21	.	.	-3	.	-0.6
CC(=O)Nc1ccc(S(=O)(=O)NC2CCCCCC2)cc1	.	.	-1	.	-0.6
COc1ccc(CC(NC(C)=O)C(=O)NC2CCN(c3nc(C)cc(C)c3C#N)CC2)c(OC)c1 (stereo not given)	7%	8	-1	-3	-1.0
COc1cc(OC)cc(C(=O)NNC(=S)NC2CC2)c1	-4%	.	0	-3	.
C=CCNC(=O)c1cc2c(=O)n3cc(C)ccc3nc2nc1NCC1CCCO1 (stereo not given)	-7%	-15	1	1	i
O=C(O)COc1ccccc1/C=N/NC(=O)Cc1csc(Nc2cccc(C(F)(F)F)c2)n1	1%	.	1	-3	8.6
COc1ccccc1NC(=O)COc1ccccc1C(=O)Nc1ccccc1	13%	.	14	8	-2.2
COc1ccccc1CNC(=O)C(CCSC)NS(=O)(=O)c1ccc2c(c1)oc(=O)n2C (stereo not given)	-6%	-45	6	8	-3.9
O=S(=O)(Nc1nc2ccccc2nc1NCC1CCCO1)c1ccc(F)cc1 (stereo not given)	-5%	.	-4	.	-0.8
CC(C)c1ccccc1OCC(=O)NCC(c1cccs1)N1CCOCC1 (stereo not given)	6%	-14	2	5	4.5
Cc1cc(C)nc(SCC(=O)c2ccc3c(c2)OCCO3)n1	-1%	-28	6	-2	-0.4
O=[N+]([O-])c1cccnc1NCCc1c[nH]c2ccccc12	.	.	-3	.	-0.4
O=C(NC1CCCCC1)C(c1ccccc1F)N(C(=O)c1csnn1)C1CCCC1 (stereo not given)	.	.	-12	.	2.0
CC(=O)Nc1sc(-c2ccc(Cl)cc2)nc1-c1ccccc1	.	.	-4	.	-1.1
CC1CCN(CCCNC(=O)CN2C(=O)CSc3ccc(S(=O)(=O)N4CCCCC4)cc32)CC1	.	.	0	.	-0.8
CCCC(=O)NC(=S)Nc1ccccc1F	9%	-22	-2	-1	-2.0
CCN(CC)C(=O)CC(c1ccc2c(c1)OCO2)c1c(OC)cc(OC)c2c(-c3ccccc3)cc(=O)oc12 (stereo not given)	-3%	.	4	.	12
COc1ccccc1-n1c(-c2ccccc2Br)nc2ccccc2c1=O	.	.	-1	.	0.3
O=C(Nc1ccc(F)cc1F)c1cc(Cl)sc1Cl	.	.	-6	.	-1.4
CCOC(=O)c1cc(NC(=O)Nc2nccs2)c(C)nc1C	-1%	-25	3	-5	2.6
COc1ccc2c(c1OC)C(=O)OC2Nc1nc(-c2cc3cc([N+](=O)[O-])ccc3oc2=O)cs1 (stereo not given)	3%	-19	9	0	0.7

The list goes on; the last 2 above are carried over.
SMILES	Mtb H37Rv	YopH PTP inh	Mtb betalactam	Arbovirus inh	RecA intein inh	others
CCOC(=O)c1cc(NC(=O)Nc2nccs2)c(C)nc1C	-1%	-25	3	-5	2.6
COc1ccc2c(c1OC)C(=O)OC2Nc1nc(-c2cc3cc([N+](=O)[O-])ccc3oc2=O)cs1 (stereo not given)	3%	-19	9	0	0.7
CCCCCc1c(C)nc(SCC(=O)O)[nH]c1=O	-5%	-13	-1	7	13
Cc1ccc([N+](=O)[O-])cc1S(=O)(=O)NCCc1c(C)[nH]c2ccccc12	1%	-15	8	3	0.4
O=C(CSc1nc(-c2cccs2)cc(C(F)(F)F)n1)NCc1ccccc1	4%	-5	-1	-13	1.2
N#CCCn1cc(C(=O)Nc2ccccc2Br)c(-c2ccc([N+](=O)[O-])cc2)n1	4%	-5	2	-5	-0.4
COc1ccccc1N1CCN(Cc2c[nH]c3ccccc23)CC1	-2%	.	-6	.	-1.3
CC1CN(C(=O)CCC(=O)NCc2ccccc2Cl)c2ccccc2S1 (stereo not given)	.	.	?	.	0.0
Cc1ccc(/C=N/N=C/c2ccc(C)s2)s1	45%	-23	-2	-5	1.3
COc1ccc2cc(CCNC(=O)CC(C)(C)C)c(=O)[nH]c2c1	11%	-1	12	6	-0.6
O=C(NCCCn1ccnc1)C(=O)NCC(c1ccco1)N1CCN(c2ccccc2)CC1 (stereo not given)	6%	.	3	5	-2.4
CC(=O)c1cn(CCCCCCCCCCn2cc(C(C)=O)c(=O)[nH]c2=O)c(=O)[nH]c1=O	-1%	-25	.	-3	.
CCn1c(SCC(=O)Nc2cccc(OC)c2)nc2ccccc2c1=O	.	.	3	.	2.8
Cc1nc2ccccn2c1/C(O)=C1\C(=O)C(=O)N(CCN2CCOCC2)C1c1ccncc1 (stereo not given)	-1%	-8	10	2	2.1
COc1ccc(Nc2cc(Cl)ccc2C(=O)O)cn1	-4%	.	-5	.	5.5
CCOc1ccc(C(CCc2ccccc2)NC(=O)c2ccccc2F)cc1OCC (stereo not given)	0%	-11	-3	-3	0.0
CC(=O)c1c(N2CCOCC2)nc2ccc(Cl)cc2c1-c1ccccc1	9%	.	-4	.	-1.5
COc1ccc(CC(=O)NC(c2ccccc2)c2ccccc2)cc1S(=O)(=O)N1CCOCC1	5%	-12	-8	-3	0.3
COc1ccc(Cl)cc1N=Cc1c(O)n(C)c(=O)n(C)c1=O	.	.	-3	.	-4.1
Clc1ccccc1Cn1nnc(-c2ccccc2)n1	3%	.	4	0	4.5
COc1ccc(C(C(=O)NC2CCCCC2)N(CC2CCCO2)C(=O)C2COc3ccccc3O2)cc1OC (stereo not given)	0%	31	8	-8	-0.1
O=C(CN1CCN(S(=O)(=O)c2ccc(Br)cc2)CC1)N/N=C/c1ccc(Cl)c([N+](=O)[O-])c1	.	-11	27	-2	6.3
COc1ccc(-n2c(=O)n(Cc3ccccc3)c(=O)c3[nH]cnc32)cc1	0%	.	1	.	2.9
